# Kir21 block: blocks the mouse Kir2.1 inward-rectifier potassium channel. B-score at 10 µM. actives 0.85% (n = 310,000). P35561. HEK293-Kir2.1, FluxOR thallium flux fluorescence; stronger effect = lower value;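 active = fluorescence ratio B-score at or below minus 3 SD of library scores, with starting-brightness B-score within 2 SD, cut at about -4.2 in these data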;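 also: channel flux triggered by added potassium and thallium sulfate stimulus; B-score of peak minus minimum fluorescence over baseline after thallium stimulus; more negative B-score means stronger Kir2.1 block with less thallium influx; some compounds called inactive have numbers as strong as hits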
# Target sequence (P35561 whole entry, looked up): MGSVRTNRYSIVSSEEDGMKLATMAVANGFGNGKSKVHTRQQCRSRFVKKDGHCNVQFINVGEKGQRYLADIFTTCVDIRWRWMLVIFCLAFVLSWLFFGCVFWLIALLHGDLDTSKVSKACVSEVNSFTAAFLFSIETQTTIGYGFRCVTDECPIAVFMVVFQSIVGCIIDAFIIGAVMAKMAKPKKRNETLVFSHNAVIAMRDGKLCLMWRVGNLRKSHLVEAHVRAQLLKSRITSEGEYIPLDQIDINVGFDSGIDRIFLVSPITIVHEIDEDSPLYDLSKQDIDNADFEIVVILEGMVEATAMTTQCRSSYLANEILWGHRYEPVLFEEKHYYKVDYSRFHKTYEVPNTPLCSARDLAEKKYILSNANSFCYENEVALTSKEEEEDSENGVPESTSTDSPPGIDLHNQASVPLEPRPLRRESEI
# An asterisk follows results filed as active.
# The first six entries, ahead of the listing:
cpd | Kir21 block | smiles
1 | -1.2 | c1ccc2c(c1)CC(N1CCCCC1)c1ccccc1S2 (stereo not drawn)
2 | -2.1 | CC(=O)c1cc(C(=O)Nc2ccc(C(=O)O)cc2)oc1C
3 | -0.08 | O=C(CSCc1ccc([N+](=O)[O-])cc1)NC1CCCCCC1
4 | 0.26 | CCOCCCNC(=O)CCSc1ccc(C)cc1
5 | 2.2 | COc1ccc(C)c(S(=O)(=O)Nc2ccc(OCC(=O)O)cc2)c1
6 | 3.3 | O=[N+]([O-])c1ccc(N2CCN(c3ccc(Cl)nn3)CC2)c(Cl)c1

# This part in full, from the start:
cpd | Kir21 block | smiles
1 | -1.2 | c1ccc2c(c1)CC(N1CCCCC1)c1ccccc1S2 (stereo not drawn)
2 | -2.1 | CC(=O)c1cc(C(=O)Nc2ccc(C(=O)O)cc2)oc1C
3 | -0.08 | O=C(CSCc1ccc([N+](=O)[O-])cc1)NC1CCCCCC1
4 | 0.26 | CCOCCCNC(=O)CCSc1ccc(C)cc1
5 | 2.2 | COc1ccc(C)c(S(=O)(=O)Nc2ccc(OCC(=O)O)cc2)c1
6 | 3.3 | O=[N+]([O-])c1ccc(N2CCN(c3ccc(Cl)nn3)CC2)c(Cl)c1
7 | -0.54 | COc1ccc2[nH]c(C(O)(Cc3cccnc3)Cc3cccnc3)cc2c1
8 | -0.81 | N#Cc1ccccc1Sc1ccccc1N
9 | -0.04 | Cc1ccc(NC(=O)CCN2C(=O)c3ccccc3S2(=O)=O)cc1F
10 | -0.1 | CCc1cc(C(=O)Nc2ccc(S(=O)(=O)NC3=NCCCCC3)cc2)sc1C
11 | -2.2 | S=c1[nH]c2ccccc2c2ccccc12
12 | 0.06 | COc1ccc2[nH]c(=O)c(CNc3ccc(C)cc3C)cc2c1
13 | -0.73 | CCC(C)(C(=O)NC1CCCC1)N(Cc1cccs1)C(=O)c1ccccn1 (stereo not drawn)
14 | -0.76 | CN(C[C@H](Cc1ccccc1)N(C[C@H](c1ccccc1)N(CCc1ccccc1)N=O)N=O)N=O
15 | 0.43 | COc1cc(/C=C/C(=O)OCC(=O)Nc2ccccc2Cl)cc(OC)c1OC
16 | -1.1 | CCCCNC(=O)CCn1nc(-c2ccc(Cl)cc2)c2ccccc2c1=O
17 | 0.91 | CC(=O)c1cccc(N(C(=O)c2csnn2)C(C(=O)NC2CCCC2)c2ccccc2)c1 (stereo not drawn)
18 | 1.3 | Cn1c2c(c3cc([N+](=O)[O-])ccc31)CCCC2
19 | -1.6 | O=C(NCCN1CCOCC1)c1cc2ccccc2oc1=O
20 | 0.01 | CC(C)CCn1cnc2c(oc3nc4c(cc32)CCCC4)c1=O
21 | 0.04 | O=S(=O)(c1ccc(Cl)cc1)n1nnc2ccccc21
22 | 0.9 | COC(C(=O)NNC(=O)Cc1ccc(Cl)cc1)c1ccccc1 (stereo not drawn)
23 | -0.36 | CCN(CC)S(=O)(=O)c1ccc(C(=O)NCCCn2ccnc2)cc1
24 | 2.4 | O=C(Cn1ccc([N+](=O)[O-])n1)N1CCCCCC1
25 | 0.85 | CC(=O)N(CN1C(=O)CCC1=O)c1ccc(Cl)c(Cl)c1
26 | -0.48 | CC(O)CNc1ncnc2nc[nH]c12 (stereo not drawn)
27 | -0.94 | COCCN1C=C2C(=O)C(C)(OC(=O)CCc3ccccc3)C(=O)C=C2C=C1c1ccc(C#N)cc1 (stereo not drawn)
28 | 3.3 | COC(=O)c1cc(C(=O)c2ccccc2)n2c(=O)/c(=C\N(C)C)sc12
29 | 0.57 | Cc1[nH]nc(SCC(=O)NCc2ccccc2)c1[N+](=O)[O-]
30 | 0.89 | Cc1ccc(C)c(S(=O)(=O)NCc2ccc(C(=O)N3CC(C)OC(C)C3)cc2)c1 (stereo not drawn)

cpd | Kir21 block | smiles
31 | 0.79 | COc1cc(NC(=O)C2=C(N3CCOCC3)/C(=C\c3ccc(N(C)C)cc3)CCC2)cc(OC)c1OC
32 | -0.23 | Cc1ccccc1-c1nc(CN2CCCC(C(=O)NCCCN3CCOCC3)C2)c(C)o1 (stereo not drawn)
33 | -3.8 | Cc1nn(CCC#N)c(NC(=O)c2ccc(Cl)cc2)c1P(=O)(Nc1ccc([N+](=O)[O-])cc1)N1CCOCC1 (stereo not drawn)
34 | 0.85 | CCOc1ccccc1C1CC(=O)Nc2cc3c(cc21)OCO3 (stereo not drawn)
35 | 1.1 | O=S(=O)(Nc1ccc(-c2nc3cccnc3s2)cc1)c1ccc(Cl)s1
36 | -0.03 | CCc1ccccc1NC(=O)COc1ccc2c(=O)c(Oc3cc(C)ccc3C)coc2c1
37 | -0.25 | Cn1c(=O)n(CCC(=O)O)c2ccccc21
38 | 1.5 | Cc1ccc(NC(=O)/C=C/c2ccc(Cl)cc2)nc1
39 | 1.2 | CCOc1ccc(NC(=O)CN(C)C(=O)c2ccccc2CCc2ccccc2)cc1OCC
40 | 0.08 | C=CCNC(=O)NC(=O)COC(=O)COc1ccc(Br)cc1F
41 | -0.47 | OCCC1CN(Cc2ccon2)CCN1Cc1ccc(F)c(F)c1 (stereo not drawn)
42 | 2 | CCOC(=O)C(c1ccccc1)C(Nc1ccccc1)c1ccccn1 (stereo not drawn)
43 | 0.22 | O=C(NC(=Nc1ccccc1)N1CCOCC1)Nc1ccccc1
44 | 0.53 | COC(=O)c1ccc(NC(=O)C2C3C=CC(C3)C2C(=O)O)cc1 (stereo not drawn)
45 | 1.2 | Clc1ccc2nnc(Cl)n2n1
46 | -0.5 | Cn1ncc(Br)c1C(=O)Nc1c(F)c(F)cc(F)c1F
47 | -0.27 | Cn1nc(C(=O)Nc2c(-c3ccccc3)nc3sccn23)c2ccccc2c1=O
48 | 1.4 | O=C1/C(=C/c2cccnc2)N=C2CCCCCN12
49 | -2.2 | O=[N+]([O-])c1ccc2[nH]c3c(c2c1)CCCC3O (stereo not drawn)
50 | 0.3 | Cc1nn(-c2ccccc2)cc1C(=S)Nc1ccccc1
51 | 0.14 | Cc1cc(C)nc(N2CCC(C(=O)NC3CCCCCC3)CC2)n1
52 | -1.2 | CC(=O)/C(=N/Nc1ccc(Br)cc1)N1CCCc2ccccc21
53 | -2.9 | CCOC(=O)c1ccc(NC(=O)CSc2nc(SC)ns2)cc1
54 | 0.29 | COc1ccc(NC(=O)C2CCCN2C(=O)NCc2ccccc2)c(OC)c1 (stereo not drawn)
55 | 0.95 | CCOc1ccc2c(C)c(C(=O)O)oc2c1OCC
56 | -2.7 | COCCNC(=O)C(=O)NCC1OCCN1S(=O)(=O)c1cccs1 (stereo not drawn)
57 | -0.41 | CCOc1ccc(CCNC(=O)c2nnn(CC(=O)Nc3c(C)cc(C)cc3C)c2N)cc1OCC
58 | 1 | Cc1cc(C)cc(N2CCCn3c2nc2c3c(=O)n(CCN3CCOCC3)c(=O)n2C)c1
59 | -1.8 | O=C(N/N=C/c1cn(CCOc2ccccc2)c2ccccc12)c1ccncc1
60 | 0.54 | O=C(NCCN1CCOCC1)c1cc2ccccc2[nH]1

# Another view of some results above:
43. O=C(NC(=Nc1ccccc1)N1CCOCC1)Nc1ccccc1
  Kir21 block = 0.22
44. COC(=O)c1ccc(NC(=O)C2C3C=CC(C3)C2C(=O)O)cc1 (stereo not drawn)
  Kir21 block = 0.53

# Next entries.
cpd | Kir21 block | smiles
61 | 1.3 | Cn1cc(C(=O)N/N=C/c2ccc(Br)c([N+](=O)[O-])c2)c2ccccc21
62 | -2.4 | CCOCCCNC(=O)C1CC(=O)N(CCc2ccc(C)cc2)C1 (stereo not drawn)
63 | 0 | CC12CN3CCN(CC(C3)C1(O)CN1CCCCC1)C2 (stereo not drawn)
64 | 0.22 | COc1ccc(C(=O)N(C)C(C)c2ccon2)cc1OC1CCN(C(C)C)CC1 (stereo not drawn)
65 | -2 | O=C1/C(=C/c2ccco2)SC(=S)N1C1CCS(=O)(=O)C1 (stereo not drawn)
66 | -0.31 | Cc1c(O)nc2sc3ccccc3n2c1=O
67 | -0.13 | O=[N+]([O-])c1ccc(N2CCN(c3ccc(F)cc3)CC2)nc1
68 | 0.28 | CCc1ccc(CN(C)C(=O)C2CCC(=O)N(Cc3ccccn3)C2)cc1 (stereo not drawn)
69 | -0.6 | NC(=O)c1cc(-c2ccncc2)nc2ccc(Cl)cc12
70 | 1.3 | CCC1=NC(c2ccc(OC)cc2OC)N(O)C1(C)C (stereo not drawn)
71 | 0.43 | CN(CCOc1ccccc1)C(=S)Nc1ccc(OC(F)F)cc1
72 | -1.9 | CCCCc1c(O)nc(SCCN(C)C)n(-c2ccccc2)c1=O
73 | 0.39 | CCOC(=O)N1CCN(S(=O)(=O)c2cc(OCC(=O)NC3CCCCC3)c(C)cc2Cl)CC1
74 | 0.09 | CCC(C(=O)Nc1cc(C(=O)O)ccc1C)c1ccccc1 (stereo not drawn)
75 | 0 | CCN1C(=O)/C(=C2/C=Cc3ccccc3N2CC)SC1=S
76 | -0.18 | CS(=O)(=O)N1CCC(C(=O)Nc2cccc(Cl)c2)CC1
77 | 1 | COc1ccc(C2CC(c3ccccc3)=NN2C(=O)COC(=O)c2cccnc2Cl)cc1 (stereo not drawn)
78 | -0.52 | O=C(Nc1ccccc1C(=O)NC(Cc1c[nH]c2ccccc12)C(=O)O)c1ccco1 (stereo not drawn)
79 | -0.03 | Cc1cccc(-[n+]2c(-c3cccc(Br)c3)[nH]c3nc4ccccc4nc32)c1
80 | -0.03 | N#Cc1nc(N)nc(N(c2ccccc2)c2ccccc2)n1
81 | 0.99 | CCC(C)n1c(S(=O)(=O)O)nc2ccccc21 (stereo not drawn)
82 | 2 | COc1cccc(CN2CCN(c3nc4nonc4nc3N3CCCCC3)CC2=O)c1
83 | 0.29 | O=C1NC2(CCC3(CC2)OCCO3)NN1c1ccc(Cl)cc1
84 | -1 | CCOC(=O)C1CCN(C(=O)c2ccc(SC)cc2OC)CC1
85 | -1.6 | Cc1ccc(CCNC(=O)CCS(=O)(=O)c2ccc3c(c2)oc(=O)n3C)cc1
86 | 0.22 | CCOC(=O)CNC(=O)C(Cc1ccccc1)NC(=O)OCc1ccccc1 (stereo not drawn)
87 | 0.25 | COc1cccc(C(=O)N/N=C2\SCC(=O)N2Cc2ccc3c(c2)OCO3)c1
88 | 0.35 | O=C1COc2ccc(C(=O)CSc3nnc(-c4cccs4)n3Cc3ccccc3)cc2N1
89 | -1.1 | COc1ccc(-c2cc(-c3n[nH]c(=S)n3-c3ccccc3OC)[nH]n2)cc1
90 | 0.01 | NS(=O)(=O)c1ccc(NC(=O)NC2CCCCC2)cc1

cpd | Kir21 block | smiles
91 | 0.27 | CC1=Nn2c(nnc2-c2ccccc2Cl)SC1
92 | -2.4 | CCOc1ccc(CCNC(=O)Cn2c(=O)c3cccn3c3cccnc32)cc1
93 | 0.08 | COC(=O)Nc1ccc2ncn(C)c(=O)c2c1
94 | 0.41 | Cc1c(NC(=O)CS(=O)(=O)c2ccccc2)c(=O)n(-c2ccccc2)n1C
95 | -0.76 | O=C(CN1CCOc2ccccc21)NCc1ccccc1
96 | -1.1 | COC(=O)CSc1nc(N)c(C#N)c(C(C)C)c1C#N
97 | -0.13 | Cc1ccc(C(=O)N2CCC(C(=O)c3ccc(Cl)cc3)CC2)cc1
98 | 0.07 | O=C(CCC1CCCC1)N1CCN(C(=O)COc2ccccc2)CC1
99 | 0.37 | Cc1c(F)cccc1NS(=O)(=O)c1ccccc1C#N
100 | 0.23 | Cc1cc(C)c(C#N)c(Nc2ccc(F)cc2)n1
101 | 0.44 | CCOC(=O)c1cc(-c2ccccc2)sc1NC(=O)C(C)OC(=O)c1cccnc1Cl (stereo not drawn)
102 | -1.4 | COC(=O)C[C@H]1c2ccc(C(F)(F)F)cc2S(=O)(=O)N1Cc1ccccc1
103 | -0.77 | CCC(C)N(C(=O)COC(=O)/C=C/c1ccc(O)c(OC)c1)C1CCS(=O)(=O)C1 (stereo not drawn)
104 | 0.5 | COc1ccc2nc(C)c(C(N)=O)cc2c1
105 | -0.25 | O=C(O)c1cc2c(s1)-c1ccccc1OC2
106 | -0.84 | CCOC(=O)N1CCN(C(=O)c2cc3cc(C)ccc3[nH]2)CC1
107 | -4 | CCOc1ccc(Cl)cc1S(=O)(=O)NC1CCCC1
108 | 1.5 | COc1ccccc1CCC(=O)N1CCC(n2nccc2NC(=O)CC(C)C)CC1

# Rewritten with tabs: part of the list above
no.	Molecule	Kir21 block
59	O=C(N/N=C/c1cn(CCOc2ccccc2)c2ccccc12)c1ccncc1	-1.8
71	CN(CCOc1ccccc1)C(=S)Nc1ccc(OC(F)F)cc1	0.43
34	CCOc1ccccc1C1CC(=O)Nc2cc3c(cc21)OCO3 (stereo not drawn)	0.85

# An excerpt; most or all hits stand in other tables.
